Screens deposited in PubChem BioAssay by NMMLSC.
Autofluor counter: compound fluorescence in toxin protease inhibitor counterscreen; fluorescence intensity (test concentration not listed); compound autofluorescence counterscreen, microsphere flow cytometry; hits give high values; 360,000 compounds, 3.1% hits; AID 624483;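 active = at least 3 SD above the mean of all compounds, about 16000 in these data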;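 note: 100 nL of 1 mM stock went into each well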
Active calls of the source: *.

SMILES	Autofluor counter
CCNC(=O)C1(C)CCN(C(=O)c2ccc(C(F)(F)F)cc2)C1 (configuration not stated)	3949
CCOC(=O)N(C)c1c(CC)nc2c(OCc3ccc(S(C)(=O)=O)cc3)cccn12	2815
COc1cccc(Cn2cnc(-c3ccccc3OC)c2C2CC2)c1	4422
Cc1ccc(S(=O)(=O)N2CC3=C(C2)C2CC2(C)C3)cc1 (configuration not stated)	6104
CCCCNC(=O)C1(C)CCCCN1Cc1ccc2ccccc2c1 (configuration not stated)	3929
O=C(Nc1cccc(OC(F)(F)F)c1)c1cccc2c(-c3cccnc3)coc12	3078
CCOC(=O)C1(C)CCN1C(=O)/C=C/c1ccccc1 (configuration not stated)	3956
COc1cc(/C=C2/SC(=S)N(CCC(=O)Nc3cccnc3)C2=O)cc(OC)c1OC	3547
O=C1NC2C3CC(c4ccccc43)C12 (configuration not stated)	2867
CCCCNc1c(-c2ccc(SC(C)CC)cc2)nc2ccc(Cl)cn12 (configuration not stated)	4465
NCC1C2CCC(O2)C1CO (configuration not stated)	3780
OCCN1CCN(c2ncnc3c2ncn3[C@H]2CN(Cc3ccc(-c4ccccc4)cc3)C[C@@H](CO)O2)CC1	2712
C=CCOc1ccc(C2NC(=O)c3ccccc3O2)cc1OC (configuration not stated)	2823
COc1cc(C(O)c2nc(-c3cncnc3)cs2)ccc1F (configuration not stated)	3713
Cc1ccc2nc(-c3ccc(F)cc3)c(Cc3cccc(Cl)c3)n2c1	6886
O=C(O)C(CCc1ccccc1)N1CCOCC1 (configuration not stated)	2957
COc1cccc(NC(=O)C(=O)NCC2CCCN2S(=O)(=O)c2cccs2)c1 (configuration not stated)	8233
Nc1ncnc2c1ncn2[C@@H]1O[C@H](C(=O)N2CCN(c3ccc(Cl)cn3)CC2)[C@@H](O)[C@H]1O	4395
Cc1ccc(N(Cc2ccccc2)C(=O)CSC(C)C(=O)Nc2cc(C)on2)cc1 (configuration not stated)	2922
CSC12CCCN(CCC(C(C)(C)C)C1)C2=O (configuration not stated)	4188
Cc1ccc(NC(=O)COC(=O)CCc2c[nH]c3ccccc23)cc1	4106
COCCNC(=O)C1(C)CCN(C(=O)c2cc(C)nn2C(C)(C)C)C1 (configuration not stated)	3956
CC(c1nc2ccccc2c(=O)[nH]1)N1CCN(S(=O)(=O)c2ccc(F)c(Cl)c2)CC1 (configuration not stated)	3915
COc1cccc(CNC(=O)[C@@H]2CCCN2C(=O)[C@H]2CCCCN2C(=O)c2ccccc2)c1	5670
CC1(Oc2ccccc2)CCN(Cc2ccc(-c3ccccn3)cc2)C1 (configuration not stated)	2958
CCC(=O)N1CCC1(C)C(=O)Nc1cccc2cccnc12 (configuration not stated)	3494
O=C(OCc1cn([C@H]2C[C@H](c3ccc(Cl)cc3)N(CC3CCCCC3)C[C@@H]2O)nn1)c1ccccc1	2893
COc1ccccc1C#Cc1cnc2c(c1)C(=O)N([C@H](C)CO)C[C@@H](C)[C@@H](CN(C)C(=O)c1ccc3c(c1)OCO3)O2	3626
COc1cc(CNc2ncnc3c2ncn3[C@H]2CN(CCN3CCOCC3)C[C@@H](CO)O2)cc(OC)c1OC	2930
Nc1[nH]c(C(=O)c2ccccc2)c(-c2ccc(Cl)c(F)c2)c1C(=O)NCCc1c[nH]c2ccccc12	6235
O=S(=O)(c1cc(Cl)cc(Cl)c1)N1Cc2cc(-c3ccccc3)ccc2-n2nncc2C1	6608
CCc1nc2c(OCC3COc4ccccc4O3)cccn2c1N(C)C(=O)c1ccc(OC)cc1 (configuration not stated)	3888
COc1ccc(NC(=O)CN2c3cccc4cccc(c34)S2(=O)=O)cc1OC	2908
COc1ccc(C(NC(=O)C2CCN(CCCOc3ccccc3)CC2)c2cccs2)cc1 (configuration not stated)	4189
CCCCNC(=O)c1nc(C2CCN(S(=O)(=O)c3ccc(F)c(F)c3)CC2)oc1-c1cccc(C(F)(F)F)c1	5910
COc1ccc(CN2C(=O)C(CC(=O)NCc3ccco3)CC(C(=O)N(C)C)=C2C)cc1 (configuration not stated)	3661
CC(C)CN1Cc2cc(-c3cccc(F)c3)ccc2-n2nncc2C1	4520
CCCCCC(=O)N1C[C@H](n2cc(-c3ccc(F)cc3)nn2)[C@@H](O)C[C@@H]1c1ccc(Cl)cc1	4201
CCN(CC(=O)Nc1ccc(NC(C)=O)cc1)C(=O)C1(c2ccc(Cl)cc2)CCC1	3027
CC1Cc2[nH]c(=S)[nH]c(=O)c2C(C(C)C)O1 (configuration not stated)	4028
COc1ccc(C(=O)N2CCOC2CNC(=O)C(=O)NCc2ccc(C)cc2)cc1 (configuration not stated)	3877
COc1ccccc1Cc1c(-c2cccc(Cl)c2)nc2ccc(Br)cn12	10314
C[C@H](CO)N1C[C@H](C)[C@@H](CN(C)Cc2ccc(Oc3ccccc3)cc2)Oc2cc(Br)ccc2S1(=O)=O	2870
COc1ccc([C@H]2C[C@@H](O)[C@H](n3cc(C4CC4)nn3)CN2CC2CCCCC2)cc1	2927
Nc1[nH]c(C(=O)c2ccccc2)c(-c2ccc(Cl)cc2)c1C(=O)NCc1ccco1	4658
Cc1ccn2c(Cc3ccccc3)c(-c3ccccc3)nc2c1	3515
O=C(NCc1ccc(F)cc1)c1cc(C2CCCN(C(=O)c3ccccn3)C2)on1 (configuration not stated)	2794
Cc1nc(C(F)(F)F)ccc1C(=O)N1CCC1(C)C(=O)NS(=O)(=O)c1cccc(F)c1 (configuration not stated)	3442
Nc1ncnc2c1ccn2[C@H]1CN(Cc2ccc(Cl)cc2)C[C@@H](CO)O1	3031
CCCc1cc(CCC)n2nc(N)nc2n1	2797
COc1cc(OC)cc(-c2c(Sc3ccccc3)c3cc(-c4ccc(SC)cc4)ccc3n2C)c1	5955
CCOC(=O)C(C#N)=C1CCC=C(C)C1	3953
CCCNC(=O)C1(C)CCN(C(=O)c2cccc(C#N)c2)C1 (configuration not stated)	3663
CC(C)C[C@@H]1CN(CCCC[C@H]2CNC(=O)C(=O)N2CCC2CCCCC2)C(=O)C(=O)N1Cc1ccccc1	6694
CC1(C(=O)NS(=O)(=O)c2cccc(Cl)c2)CCN1C(=O)Cc1ccc(-c2ccccc2)cc1 (configuration not stated)	3860
CC1(C)CC2(C)CC(=O)C1C(C(=O)O)C2C(=O)O (configuration not stated)	3869
O=C1NN(CCO)C(=S)Nc2ccccc21	3149
CCOC(=O)[C@]12CCCC=C1N(Cc1cccc3ccccc13)C(=O)[C@H](CC(=O)N1CCC(c3ccccc3)CC1)C2	6098
O=C1c2ccccc2C2N1CCCN2C(=O)c1sc2ccccc2c1Cl (configuration not stated)	3639
COc1ccc(NC(=O)C2(C)CCN2CCc2ccccc2)cc1OC (configuration not stated)	3834
Next structures.
SMILES	Autofluor counter
C=CCn1c2c(c3ccccc31)CCC2	6085
COc1cc(/C=C/C(=O)OCC(=O)c2ccc[nH]2)ccc1O	4314
FC(F)(F)c1ccccc1Cc1c(-c2ccco2)nc2ccc(Br)cn12	8309
O=S(=O)(c1ccc(F)c(F)c1)N1CCCCCCC1	3921
C[C@H](CO)N1C[C@H](C)[C@H](CN(C)S(=O)(=O)c2ccc(F)cc2)OCc2cnnn2CCCC1=O	3635
CC1Cc2ccccc2N1CC(=O)Nc1cc(S(=O)(=O)N2CCOCC2)ccc1Cl (configuration not stated)	3672
CC1(C(=O)NCc2ccccc2Br)CCN1C(=O)CCc1ccc(Cl)cc1Cl (configuration not stated)	3529
COc1ccccc1NC(=O)Nc1nc(C(N)C2CCCCC2)cs1 (configuration not stated)	3034
O=C(Nc1cccc(Oc2ccccc2)c1)C1Cc2c(-c3ccc4c(c3)OCO4)ccnc2O1 (configuration not stated)	4811
Cc1ccc(-c2nc3ccc(Br)cn3c2Cc2cccc(Cl)c2)cc1	6819
Nc1nc(N)c2cc(Sc3cccc(C(F)(F)F)c3)ccc2n1	3975
Cc1ccc2nc(N(CCN(C)C)C(=O)C3CCN(S(=O)(=O)c4cccs4)CC3)sc2c1	3889
CCc1ccc([C@H]2C[C@H]3[C@H]4C(=O)N(c5ccccc5)C(=O)[C@H]4CC(=O)[C@@H]3CN2S(=O)(=O)c2ccc(C)cc2)cc1	4382
CC(C)[C@H](CO)NC(=O)[C@H]1O[C@@H](n2ccc(=O)[nH]c2=O)[C@H](O)[C@@H]1O	6042
Cc1ccc(S(=O)(=O)N(C)[C@H]2C[C@H]3c4[nH]c5ccccc5c4CCN3C[C@H]2[C@H](C)O)cc1	5715
Oc1ccc(O)c(C=NNC(=S)NC2CC3CC2C2C=CCC32)c1 (configuration not stated)	2764
Cc1ccc(C(=O)Nc2cccnc2)cc1C	4001
CCC1NC(=O)c2cc3ccccc3cc2-n2c1nc1cc(F)ccc1c2=O (configuration not stated)	3340
OC[C@@H]1CN(Cc2ccc(-c3ccccc3)cc2)C[C@H](n2cnc3c(NC4CCCC4)ncnc32)O1	3739
CC(=O)c1ccc(OC2(C)CCN(Cc3ccc4c(c3)OCCO4)C2)cc1 (configuration not stated)	4113
Cc1noc(C)c1C(=O)N1CCC1(C)C(=O)NS(=O)(=O)c1ccc(Br)cc1 (configuration not stated)	3487
Cn1cc(-c2csc(C(C)(O)c3cccc(F)c3)n2)cn1 (configuration not stated)	3393
O=C1Cc2cccc(=O)c(O)c2C(=O)O1	3688
C[C@@H]1CN([C@@H](C)CO)C(=O)CCCn2nncc2CO[C@H]1CN(C)Cc1cccc(C(F)(F)F)c1	4291
C[C@@H](c1ccccc1)N1C[C@H](COCc2ccccc2)Oc2cc(N3CC[C@@H](O)C3)ccc2S1(=O)=O	5575
Cc1ccc(F)cc1NC(=O)COC(=O)C1CC2CCCC(C1)C2=O (configuration not stated)	3847
Cc1nnc(NCC=Cc2ccccc2)s1	5663
COc1cccc(C(C)(O)c2nc(-c3ccc(OC)nc3)cs2)c1 (configuration not stated)	3609
O=C(Nc1ccccc1)c1cc(C2COCCN2C(=O)CCCc2ccccc2)on1 (configuration not stated)	3677
C[C@@H]1CN([C@H](C)CO)C(=O)CCCn2nncc2CO[C@H]1CN(C)S(=O)(=O)c1ccc(F)cc1	2882
C/C=C/c1cccc(-c2nc(C(=O)N3CCOCC3)cc3c2[C@H](CCO)N(C(=O)NC(C)C)C3)c1	6748
O=C(OCc1cn([C@H]2C[C@H](c3ccc(Cl)cc3)N(Cc3cccs3)C[C@@H]2O)nn1)c1ccccc1	3945
CNc1ccc(-c2cc(OC)ccc2OC)cn1	3866
CCCNC(=O)c1cc(C2CCCCN2C(=O)c2cc(F)ccc2C)on1 (configuration not stated)	3850
C[C@H](CO)N1C[C@H](C)[C@@H](CN(C)S(=O)(=O)c2ccc(C#N)cc2)OCc2cn(nn2)CCCC1=O	3784
CC(=O)Oc1ccc(Cn2c(C)c(C(=O)NCCC#N)sc2=O)cc1	5350
COCCNC(=O)C1(C)CCN(C(=O)c2cc(C)n(C(C)(C)C)n2)C1 (configuration not stated)	3666
C[C@H]1CCCCO[C@H](CN(C)CC2CCCCC2)[C@@H](C)CN([C@@H](C)CO)C(=O)c2cc(NS(=O)(=O)c3ccccc3)ccc2O1	3783
CCC(c1nc2ccccc2[nH]1)N(C(=O)C1=NNC(=O)CC1)c1ccccc1 (configuration not stated)	5513
CCCCCC(=O)N1C[C@@H](n2cc(-c3ccc(F)cc3)nn2)[C@H](O)C[C@@H]1c1ccc(C)cc1	3902
COCCNC(=O)C1(C)Cc2c(-c3ccc4c(c3)OCO4)ccnc2O1 (configuration not stated)	4558
CCC(=O)N1CCCC(C)(C(=O)Nc2nccc3cccnc23)C1 (configuration not stated)	3020
S=C(NCCCc1cnc[nH]1)NCCCN(Cc1ccc(Cl)c(Cl)c1)c1ccc(Br)cn1	3913
Cc1ccc(CC2(C)C(=O)Nc3c(Cl)cccc32)cc1 (configuration not stated)	3868
COc1ccccc1C(=O)NCCC(=O)NCCOc1ccc(C)cc1	3615
CCN1C(=O)[C@H]2[C@@H](c3ccc(OC)cc3)N[C@]3(CCCN(Cc4ccc(C)cc4)C3=O)[C@H]2C1=O	3067
O=C(Cc1ccccc1F)Nc1cccc(S(=O)(=O)N2CCCCC2)c1	3424
CCOC(=O)N(C)c1c(CC)nc2c(OCc3ccc(Cl)cc3)cccn12	4329
OCCN1CCN(c2cc(-c3ccc4ccccc4c3)nc3ccnn23)CC1	2088
CC1=C(C(=O)N(C)C)CC(CC(=O)NCCCN(C)C)C(=O)N1Cc1ccccc1 (configuration not stated)	3930
CCOC(=O)N1CCC(=NNC(N)=O)C1	3730
C#CCNC(=O)C[C@@H]1C[C@@]2(C(=O)OCC)CCCC=C2N(Cc2cccc3ccccc23)C1=O	6192
CN(C)S(=O)(=O)c1ccc2c(c1)nc(CCC(=O)NCC(=O)Nc1ccc(F)c(F)c1F)n2C	4071
Cc1ccc(NC2CCCN(C(=O)c3cc(C(C)C)nn3C)C2)cc1C (configuration not stated)	3634

The list is partial; rates above refer to the full screens.
